Choline anaer gr: choline-fed anaerobic bacterial growth inhibition. AID 1963822. Gram-negative bacterium anaerobic choline minimal medium, absorbance growth; active compounds read low; many inactives read as strong as hits in the columns shown. hit rate 0.2% among 55,000. calls only;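 active = growth z-score on choline under -2 at 7 or 20 h with little or no fall on glycerol, limits in tiers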;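 also: stock transfer was 300 nL into about 50 µL; the organism is E. coli; final concentration not given here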
Choline anaer gr early: further read-out of Choline anaer gr, marked with its call; z-score; measured here: choline growth z-score, timepoint 1;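 score of optical density at 7 h as mean of two plates; lower means less growth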
* = called active by the depositor; i = inactive; & = joins results of further samples. Some of the compounds tested, so the mix of outcomes need not match the whole.

SMILES	Choline anaer gr	Choline anaer gr early
CN(CC1COCCO1)c1ccc(NC(=O)c2ccccc2Cl)cc1C(=O)O (stereo unspecified)	i	0.64
CC(C)Cc1cc(-c2nn3c(-c4ccccc4F)nnc3s2)n[nH]1	i	1.4
COC(=O)c1ccc2c(=O)n(CCCC(=O)NC3CCN(Cc4ccccc4)CC3)c(=S)[nH]c2c1	i	-0.96
COc1cc(NC(=O)COC(=O)CC2(CC3=NS(=O)(=O)c4ccccc4N3)CCCC2)cc(OC)c1	i	1.5
Cc1cc(=O)[nH]c(-n2nc(C)cc2NC(=O)c2cccc(Br)c2)n1	i	0.25
CC1=C(C)C(=O)C(C(CCCCCC(=O)O)c2ccccc2)=C(C)C1=O (stereo unspecified)	i	0.07
COc1cc(NC(=O)N(C)CCc2c(C)nn(C)c2C)cc(OC)c1	i	-0.72
CCCN1CCc2c(sc(NC(=O)c3ccc(S(=O)(=O)N4CCOCC4)cc3)c2C(=O)OC)C1	i	-0.13
C=Cc1ccc(Cn2nc3n(C(C)C)c(=O)c4ccc(C(=O)NC(C)C)cc4n3c2=O)cc1	i	0.63
O=S(=O)(c1ccc(-c2nnc(C3CC3)o2)s1)N1CCOCC1	i	-0.79
COc1ccc2oc(-c3ccc(C)c(NC(=O)c4ccc5c(c4)OCCO5)c3)nc2c1	i	0.94
C=Cc1ccc(CN2C(=O)CC(c3ccc(OC)cc3)=Nc3ccccc32)cc1	i	-0.23
CC(=O)N1CCc2cc(S(=O)(=O)CCC(=O)NCc3ccc(Cl)cc3)ccc21	i	0.2
CCOc1ccc(-c2noc(-c3cccn4c(=O)c5ccccc5nc34)n2)cc1OC	i	-0.2
COc1ccc(C2CCCN2Cc2cc(OC)cc(OC)c2)cc1 (stereo unspecified)	i	-0.44
Cn1c(=O)c(N2CCCC(C(=O)NCc3ccc(Cl)cc3)C2)nc2ccccc21 (stereo unspecified)	i	-1.1
Cc1ccc(S(=O)(=O)NCc2cccn2Cc2cccc(F)c2)cc1	i	2.4
Cc1[nH]c2ccccc2c1C(=O)CN1CCN(c2ccccc2)CC1	i	-1
Cc1noc(C)c1C1CCCN1C(=O)Cn1cc(Cl)cn1 (stereo unspecified)	i	0.11
CCOC(=O)c1c(NC(=O)CSc2nnc(CNC(=O)c3ccc(OC)cc3)n2C)sc2c1CCCC2	i	-0.64
O=C(c1c2c(nc3ccccc13)C(=O)N(C1CCCCC1)C2)N1CCC(c2ccccc2)C1 (stereo unspecified)	i	-0.51
COc1ccc(S(=O)(=O)N2CCc3nc(NC(=O)c4cnccn4)sc3C2)cc1	i	-0.29
O=C(NCc1ccc(Br)cc1)c1ccc(-c2cccc(F)c2)nc1	i	0.87
N=c1ccn2c(n1)OC1C(O)C(CO)OC12 (stereo unspecified)	i	0.12
O=C(Nc1ccc(-c2nc3ccccc3s2)cc1)c1ccc2c(c1)OCCO2	i	-1.4
CC1CCCCN1c1csc2ccccc2c1=O (stereo unspecified)	i	-1.3
CC(C)c1ccc(OCC(O)Cn2c(C3CC3)nc3ccccc32)cc1 (stereo unspecified)	i	0.75
CC1CCN(Cc2nc3cc(NC(=O)C4CCCCC4)ccc3n2C(C)C)CC1	i	-2.9
Cc1ccc(Nc2nc(NCCN3CCOCC3)nc3c2cnn3-c2ccccc2)cc1	i	0.77
CCC(=O)Nc1cccnc1-c1ccc(C(=O)NC(C)CCc2ccccc2)cc1 (stereo unspecified)	i	0.14
O=C(Nc1ccc2c(c1)OCCO2)N1CCN(Cc2cc(=O)n3nc(-c4ccccc4F)sc3n2)CC1	i	0.09
O=C(OC1C[N+]2(CCCOc3ccccc3)CCC1CC2)C(O)(c1cccs1)c1cccs1 (stereo unspecified)	i	0.19
O=C(C1CCN(c2ncnc3c2oc2ccccc23)CC1)N1CCOCC1	i	0.62
Cc1cc(C)c2c(=O)n(Cc3nc(-c4ccccc4C)oc3C)c(=O)n(-c3ccccc3)c2n1	i	0.56
CCCN1C(SCC(=O)Nc2ccc(C)c(C)c2)=NS(=O)(=O)c2ccccc21	i	0.6
COc1ccc2ncc(C(=O)c3ccccc3)c(N3CCC(C)CC3)c2c1	i	-0.01
CCOC(=O)c1cc(C(=O)Nc2ccccc2)c(=O)[nH]c1C	i	0.69
CC(C)CCNC(=O)C1(C)Cn2c(c(-n3cccc3)c3ccccc32)C(=O)N1Cc1ccccn1 (stereo unspecified)	i	-0.09
CC(C)CCNC(=O)C1CCN(c2cc(-c3ccc(F)cc3)ncn2)CC1	i	0.88
O=C(Nc1cccc(Cl)c1)N1CC2CCCN2c2ccccc21 (stereo unspecified)	i	0.06
O=C(Nc1cccc(-c2nc3cccnc3s2)c1)C1CCCO1 (stereo unspecified)	i	-0.08
CCN(CC)c1nc2c(S(=O)(=O)c3ccc(C)c(C)c3)nnn2c2ccccc12	i	-1.7
Cc1ccc(NC(=O)c2c(-c3ccccc3Cl)noc2C)cc1-n1cnnn1	i	0.53
CCCn1c(=O)c2sccc2n2c(CCC(=O)NCCc3ccc(S(N)(=O)=O)cc3)nnc12	i	1
Cc1nnc2c(SCc3ccc(Cl)cc3)nc3ccccc3n12	i	-0.65
COc1cc(NC(=O)CCc2c(C)nn(-c3ccc4nncn4n3)c2C)cc(OC)c1	i	0.25
O=c1c2ccccc2nc2n1CCc1c-2[nH]c2ccccc12	i	1.4
CCCNC(=O)c1ccc2c(c1)nc1n2CCOC1	i	-0.48
COc1ccc(Cl)cc1S(=O)(=O)Cc1nc(-c2ccc3c(c2)OCO3)no1	i	0.49
COc1cccc(S(=O)(=O)Nc2cc3c(cc2Oc2ccccc2)n(C)c(=O)c(=O)n3C)c1	i	0.3

Other structures follow:
SMILES	Choline anaer gr	Choline anaer gr early
CCc1nc(N2CCC(C(=O)N3CCC4(CC3)OCCO4)CC2)c2c(C)scc2n1	i	0.53
O=S(=O)(c1cn(Cc2noc(-c3cccc(Cl)c3)n2)cn1)N1CCCCC1	i	0.8
COc1ccc(C(=O)N2CCN(c3cc(N(C)C)nc(C)n3)CC2)cc1OC	i	0.01
COc1ccc2cc3c(nc2c1)N(C(=O)COc1ccccc1)CC3	i	0.88
Cc1cc(C(=O)N2CCCC2c2cc(C(C)C)no2)no1 (stereo unspecified)	i	0.49
COc1ccc(C(=O)Nc2ccc(-c3ccc4ccccc4n3)cc2)cc1	i	0.36
COc1ccc(CNC(=O)C2CCCN(c3nc4ncccc4n4cccc34)C2)cc1 (stereo unspecified)	i	-2
O=C(Nc1ccsc1-c1nnc(C2CC2)o1)c1ccsc1	i	0.71
CCn1c(SCC(=O)O)nc2c(=O)n(C)c(=O)n(C)c21	i	-0.03
COc1cccc2c1C(=O)c1c(O)c3c(c(O)c1C2=O)C[C@@](O)(C(C)=O)C[C@@H]3O[C@H]1C[C@H](N)[C@H](O)[C@H](C)O1	i	0.5&-1.5
O=C(CSc1nnc2c(=O)n(-c3ccccc3)ccn12)c1c[nH]c2ccccc12	i	-0.96
CC1OC(OC2C(CO)OC(OC3C(CO)OC(O)C(O)C3O)C(O)C2O)C(O)C(O)C1NC1C=C(CO)C(O)C(O)C1O (stereo unspecified)	i	-0.33
CCn1nnc(NCc2ccc(-c3cc(Cl)cc(Cl)c3)o2)n1	i	0.42
Cc1ccccc1OCC(O)Cn1c(C2CC2)nc2ccccc21 (stereo unspecified)	i	-0.48
COc1ccc(C2CC(=O)Nc3c2cnn3-c2ccc3nnc(C)n3n2)cc1OC (stereo unspecified)	i	0.27
Cc1cc(NC(=O)CCc2nc(CSc3nc4ccccc4[nH]3)no2)ccc1Br	i	0.3
CCSc1nc2ccc(NS(=O)(=O)Cc3cc(F)cc(F)c3)cc2s1	i	-0.36
CC1CCC2(CC1)NCCN=C2NCc1cc(F)cc(F)c1 (stereo unspecified)	i	0.65
CNC(=O)c1ccc(-c2nc3cc(NS(=O)(=O)c4cnc[nH]4)ccc3n2C)cc1	i	0.01
Cc1ccc(NC(=O)c2cccc(-n3cnnc3)n2)cc1	i	-0.59
O=S(=O)(c1cccs1)N1CCC2(CC1)NCCN=C2NCc1ccc(Cl)cc1	i	-0.91
CCOc1ccc(-c2nc(CN)c(C)o2)cc1	i	-1.4
O=C(Cn1c(=O)n2nc(-c3ccc(F)cc3)nc2c2ccccc21)N1CCN(c2ccc(F)cc2)CC1	i	-0.88
Cc1nn(-c2ccccc2)c(N2CCC(C(=O)NC(C)C)CC2)c1NC(=O)C(C)C	i	-0.11
COc1cccc(CNC(=O)CN2C(=O)CCc3cc(S(=O)(=O)N4CCCC4)ccc32)c1	i	0.22
CCOC(=O)c1cc2ccsc2n1CC(=O)N(CC)c1ccccc1	i	-0.69
Cc1[nH]c(C)c(S(=O)(=O)NC2CCN(Cc3ccccc3)CC2)c1C(=O)N1CCCC1	i	0.33
O=C(c1cc2ccccc2[nH]1)N1CCN(c2ccc(=O)n(-c3ccccc3)n2)CC1	i	0.31
Cc1c(C)n(Cc2ccncc2)c2ncn3nc(-c4ccc(C(C)(C)C)cc4)nc3c12	i	-0.75
O=C(Nc1ccc(N2CCN(Cc3ccc4c(c3)OCO4)CC2)c(C(=O)O)c1)c1ccc(F)cc1	i	-0.67
COc1ccc2c(c1)c1nnc(-c3ccccc3)c-1cn2Cc1ccccc1	i	2.1
CCn1cc(S(=O)(=O)N2CCCn3nc(-c4ccc(OC)cc4)cc3C2)cn1	i	1.2
Cc1ccc(F)cc1NC(=O)Cn1c(=O)nc(-c2ccccc2)c2ccccc21	i	0.54
CC(C)Cc1nc(CNC(=O)C2CCCC2)no1	i	0.6
O=C(CCCc1nnc2n(Cc3ccccc3)c(=O)c3ccccc3n12)NC1CCCCC1	i	0.55
Cc1ccccc1Cc1c(C)nc2c(-c3nc(-c4ccccc4)no3)cnn2c1C	i	0.48
Cc1cc(NC(=O)n2nc(C)c3ccccc32)ccc1Br	i	3
O=C(COCc1cc(-c2ccc3c(c2)OCO3)on1)Nc1ccc(Br)cn1	i	1
O=C(NC1CCCC1)C1CCN(Cc2noc(-c3ccc(F)cc3)n2)CC1	i	0.28
CC(NC(=O)Nc1cn(C)c(=O)c2ccccc12)c1ccccc1 (stereo unspecified)	i	-0.46
CCOC(=O)c1ccccc1NC(=O)Cn1cc(C(=O)c2ccncc2)c(=O)c2cc(Cl)ccc21	i	-0.09
CCOc1ccccc1OC(=O)c1cc2c(C)nn(-c3ccc(F)cc3)c2s1	i	0.39
O=C(Nc1ccccc1F)c1ccc2c(c1)OCCCO2	i	-0.95
O=C(Nc1ccccc1)N1CCN(C(=O)c2nsc3ccccc23)CC1	i	-0.95
CCOc1ccc(-c2cc(NC(=O)Cn3ncc4c(=O)oc5ccc(C)cc5c43)on2)cc1	i	-1
O=C(COc1ccc(F)cc1)N1CCOc2ccc(COCc3cccc(F)c3)cc2C1	i	0.31
Cc1cc(C2CC(=O)Nc3c2c(C)nn3-c2nc3ccccc3[nH]2)c(C)s1 (stereo unspecified)	i	1.6
c1ccc(CN(Cc2ccccc2)c2ncnc3nc[nH]c23)cc1	i	-1.2
O=C(Cn1c2c(c(-c3ccccc3Cl)cc1=O)CCC2)NC1CCCC1	i	0.48
Cc1ccc(C(=O)NC(C)C)cc1NC(=O)c1nsc2ccccc12	i	-0.56

The list goes on.
SMILES	Choline anaer gr	Choline anaer gr early
COc1ccc(S(=O)(=O)Nc2ccc(C(=O)N3CCCC(C(=O)NC(C)C)C3)cc2)cc1 (stereo unspecified)	i	0.32
CC(C)CNC(=O)CCn1c(=O)c2ccccc2n2c(SCC(=O)NC3CCCCC3)nnc12	i	-1.8
COc1cc(NC(=O)CCc2c(C)nn3cnnc3c2C)cc(OC)c1	i	-0.62
Cc1ccc2snc(C(=O)N3CCN(C(=O)c4cc5cc(Cl)ccc5[nH]4)CC3)c2c1	i	1
CC(C)C(NC(=O)C1CCC(C(C)(C)C)CC1)C(=O)NCCc1ccc(S(N)(=O)=O)cc1 (stereo unspecified)	i	-0.13
CCc1ccc(-n2c(=O)c3cccnc3n2CC(=O)Nc2ccc(C)cc2C)cc1	i	-0.64
Cc1ccnc(NS(=O)(=O)c2ccc(N)cc2)n1	i	0.5&0.18
CN(C)C(=O)c1ccc2c(c1)N(CC(=O)NC1CCCCC1)C(=O)CS2	i	0.2
Cc1noc2c1C(c1cccc(F)c1)C1=C(CC(c3ccc(O)cc3)CC1=O)N2 (stereo unspecified)	i	0.5
Cn1cnc2cc(-c3noc(-c4ccc(Cl)cc4)n3)ccc21	i	-0.16
O=S(=O)(Nc1ccccn1)c1ccc2[nH]c3c(c2c1)CCCCC3	i	0.45
CCCN(c1nc2nc(C)cc(C)n2n1)S(=O)(=O)c1ccccc1	i	0.71
